FGF22 binding = binders of human FGF22 protein, primary screen, FGF22 synaptogenesis inhibitor project, biophysical, thermal shift, single point | recombinant FGF22 thermal shift, SYPRO orange fluorescence; percent of sucrose octasulfate shift, DMSO zero | calls only at 9.99 µM | actives 1.5% (n = 340,000) | AID 651658, 2012;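 active means melting point raised past a set limit in the mean and every replicate; inconclusive means no clear call; three in four hits are not shown here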
Target sequence (Q9HCT0 whole entry, looked up): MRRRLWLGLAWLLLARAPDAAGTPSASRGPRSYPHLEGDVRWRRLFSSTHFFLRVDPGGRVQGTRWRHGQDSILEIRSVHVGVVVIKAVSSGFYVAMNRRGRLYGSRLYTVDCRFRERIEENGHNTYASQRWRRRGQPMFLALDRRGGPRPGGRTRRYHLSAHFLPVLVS
HNF4A DNA FP = change in binding of human HNF4A to DNA, primary screen, biochemical, fluorescence polarization, FITC-DNA; AID 1224865, 2016; 1 h; activity change, % at 10 µM; actives 0.3% (n = 360,000); in the data active means activity change above about 30%, passing the limit was not always enough;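 further: controls were the assay level and a saturating level of protein; the project sought stronger binding though the title names inhibitors; some compounds called inactive have numbers as strong as hits; positive values seem to mean higher polarization but the record does not say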
RanGTP-Imp inh = inhibitors of RanGTP-importin-beta interaction, primary screen, biochemical, FRET, CFP-Ran, YFP-importin-beta, homogeneous | cell-free CFP-Ran/YFP-importin-beta FRET ratio | inhibition, % (test concentration not listed) | actives 1.1% (n = 300,000);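 active means most replicates above 15%; inconclusive means exactly half above 15%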;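 further: 0% = DMSO wells and 100% = Ran loaded with GDP instead of GTP; wells of about 40 µL received 100 nL stock; the first replicate is given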
E coli growth = E. coli growth inhibition, primary screen, OD600. Escherichia coli growth, 23 h; stronger effect = lower value. OD600 absorbance (no concentration beside the values). actives 0.21% (n = 330,000). AID 1053175, 2014;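 active means OD600 absorbance below the run mean of sample wells minus 3.6 SD, in any replicate, cut at about 0.56 in these data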;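 further: stock transfer was 300 nL into about 60 µL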
Vif TR-FRET = inhibitors of Vif binding to APOBEC3G peptide, primary screen, biochemical, TR-FRET, GST-Vif 1-94, biotin-A3G peptide, dose response retest (AID 1117319). TR-FRET GST-Vif / biotin-A3G peptide binding; higher % means a stronger effect; test concentration not given here; strong numbers were not always called active. actives 0.57% (n = 260,000). inhibition, %; hits with a dose series show IC50 in µM. Virion infectivity factor (Human immunodeficiency virus type 1 group M subtype B (isolate …;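 active means above the screen mean plus three standard deviations and confirmed in dose response; inconclusive means results disagree or hit not tested in dose response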;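 further: Vif residues 1-94 fused to GST binding biotinylated APOBEC3G peptide 110-148; 0% = full assay without inhibitor and 100% = GST in place of GST-Vif; retest series ran down from 100 µM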
AF4-AF9 inh = inhibitors of AF4 peptide binding to AF9, primary screen, biochemical, AlphaScreen, biotin-AF4 peptide, FLAG-AF9, single point; actives 0.47% (n = 350,000); inhibition, % at 10 µM; AID 651704, 2012;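 active means every replicate reaching a set inhibition limit, whatever the replicate mean, cut at about 25% in these data; inconclusive means mean inhibition reaches that limit but some replicates miss it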;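 further: 0% = plate neutral control median and 100% = total signal loss; the record names both 10 and 1 µM as test concentration; the first replicate is given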
Target sequence (P42568 whole entry, looked up): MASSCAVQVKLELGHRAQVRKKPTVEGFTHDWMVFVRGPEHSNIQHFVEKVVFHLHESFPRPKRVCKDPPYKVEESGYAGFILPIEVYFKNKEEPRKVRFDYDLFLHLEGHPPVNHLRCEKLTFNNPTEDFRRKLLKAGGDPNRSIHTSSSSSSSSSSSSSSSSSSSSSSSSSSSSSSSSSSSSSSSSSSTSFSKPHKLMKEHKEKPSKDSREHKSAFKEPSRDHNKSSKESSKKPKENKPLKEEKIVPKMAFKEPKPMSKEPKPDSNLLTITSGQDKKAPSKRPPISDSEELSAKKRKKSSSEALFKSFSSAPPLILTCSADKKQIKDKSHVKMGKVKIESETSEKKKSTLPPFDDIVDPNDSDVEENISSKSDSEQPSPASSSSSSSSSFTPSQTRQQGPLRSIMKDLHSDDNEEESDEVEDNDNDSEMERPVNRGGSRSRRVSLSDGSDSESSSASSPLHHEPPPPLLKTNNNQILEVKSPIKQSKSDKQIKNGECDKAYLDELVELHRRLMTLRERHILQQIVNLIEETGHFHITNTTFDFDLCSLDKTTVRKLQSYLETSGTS
UCH37 DUB inh = inhibitors of human UCH37 deubiquitinase, primary screen, biochemical, Ub-AMC cleavage, fluorescence; purified proteasome/UCH37; inhibition, % (no concentration beside the values); actives 0.33% (n = 330,000); AID 588478, 2011;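 active means mean of two replicates above 20%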;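 further: 0% = compound-free wells with enzyme and 100% = wells lacking proteasome; stock transfer was 100 nL into about 20 µL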
Target sequence (Q9Y5K5 whole entry, looked up): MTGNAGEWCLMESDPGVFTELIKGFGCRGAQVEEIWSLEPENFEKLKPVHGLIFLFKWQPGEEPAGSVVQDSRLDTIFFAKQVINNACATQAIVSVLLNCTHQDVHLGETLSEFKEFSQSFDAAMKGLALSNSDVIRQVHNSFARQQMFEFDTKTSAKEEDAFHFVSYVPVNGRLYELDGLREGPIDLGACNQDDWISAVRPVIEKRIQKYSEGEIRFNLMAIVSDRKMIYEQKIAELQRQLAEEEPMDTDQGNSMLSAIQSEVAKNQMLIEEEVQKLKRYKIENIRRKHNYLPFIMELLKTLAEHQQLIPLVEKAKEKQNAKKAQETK
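Signal – fluorescence, ex 355 nm, em 460 nm · System – Proteasome-bound UCH37 · Input – 0.15 nM proteasome as dispensed · Timing – 30 min preincubation with enzyme, 25 min cleavage at room temperature · Read-out basis – percent inhibition of cleavage signal versus uninhibited and no-proteasome wells · Medium – Tris-HCl pH 7.4 with ATP-MgCl2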
An asterisk follows results filed as active; i = inactive; ? = inconclusive; · = not tested or not shown.

SMILES	FGF22 binding	HNF4A DNA FP	RanGTP-Imp inh	E coli growth	Vif TR-FRET	AF4-AF9 inh	UCH37 DUB inh
O=C(OCc1cn([C@@H]2C[C@H](c3ccc(Cl)cc3)N(CC3CCCCC3)C[C@H]2O)nn1)c1ccccc1	i	0.9	·	·	·	-1.7	·
S=C(c1ccc(N2CCOCC2)cc1)N1CCCCC1	·	1.1	0.4	0.71	-1%	·	0.2
O=C1CC(c2ccco2)CC(O)=C1C=NCCN1CCN(C2CC(=O)N(c3ccccc3)C2=O)CC1 (stereo not given)	·	-1.9	-3.2	0.74	?	·	-0.6
Cc1ccccc1NC(=S)N(C)Cc1cccs1	·	1.1	0.1	0.79	-4%	·	2.2
Cc1nn(CC(=O)NC(=O)NC2CCCC(C)C2C)c(=O)c(C#N)c1C (stereo not given)	i	-0.8	-3.7	0.6	-3%	-1.7	0.1
COc1ccccc1Nc1nn2c(=O)c3ccc(C(=O)N4CCCC(C)C4)cc3nc2s1 (stereo not given)	i	1.3	-2.9	0.67	2%	-3.4	-1.0
C=CCNC(=O)CN1C(=O)CSc2ccc(S(=O)(=O)N3CCOCC3)cc21	i	-2.6	·	·	-5%	-1.8	·
COc1cccc2cc(/C(=N/O)c3ccc(Br)cc3)oc12	i	0.8	2.0	·	-13%	-1.1	·
O=C(NCc1cccnc1)C1CCN(S(=O)(=O)c2cccs2)CC1	·	0.3	2.9	0.74	1%	·	-0.2
COc1ccccc1-n1cc(C(=O)NCC(=O)N2CCN(Cc3ccccc3)CC2)c2ccccc2c1=O	·	-1.0	1.5	0.69	21%	2.0	-0.9
O=C(NC1=NCCS1)c1cc(-c2ccccc2)nn1-c1ccccc1	·	3.0	-3.9	0.7	-12%	·	0.9
COc1ccc(Cn2nnc3c(=O)[nH]c(C4CCCN(C(=O)c5ccccc5)C4)nc32)cc1 (stereo not given)	i	4.5	-3.0	0.73	0%	-2.4	3.8

Arranged by molecular weight (low to high): 3 of the compounds above.
SMILES	FGF22 binding	HNF4A DNA FP	RanGTP-Imp inh	E coli growth	Vif TR-FRET	AF4-AF9 inh	UCH37 DUB inh
Cc1ccccc1NC(=S)N(C)Cc1cccs1	·	1.1	0.1	0.79	-4%	·	2.2
O=C(NCc1cccnc1)C1CCN(S(=O)(=O)c2cccs2)CC1	·	0.3	2.9	0.74	1%	·	-0.2
O=C(OCc1cn([C@@H]2C[C@H](c3ccc(Cl)cc3)N(CC3CCCCC3)C[C@H]2O)nn1)c1ccccc1	i	0.9	·	·	·	-1.7	·

(listing goes on)
SMILES	FGF22 binding	HNF4A DNA FP	RanGTP-Imp inh	E coli growth	Vif TR-FRET	AF4-AF9 inh	UCH37 DUB inh
COc1ccc(Cl)cc1NS(=O)(=O)c1cccc(C(=O)NC2CCC(O)CC2)c1 (stereo not given)	·	-0.4	1.0	0.71	-1%	-12	-1.1
O=C(COC(=O)CCNS(=O)(=O)c1ccccc1)NC1CC1	i	1.4	·	0.64	·	2.9	-0.5
COc1ccccc1NC(=O)/C(C#N)=C/c1cc([N+](=O)[O-])ccc1N1CCCC1	i	-105	-158	0.7	·	3.0	6.8
CC(C)Oc1ccc(C(=O)Nc2nc3ccccc3[nH]2)cc1	i	-6.9	-0.5	0.65	·	-6.9	1.0
CCCn1c(=O)c2ccccc2n2c(SCCOc3ccc(C)cc3)nnc12	i	-4.6	0.3	0.66	15%	-42	1.6
COC(=O)[C@]12CCCCC=C1N(Cc1ccc3c(c1)OCO3)C(=O)[C@H](CC(=O)NCCCCc1ccccc1)C2	i	2.4	·	·	·	-0.6	·
CC1c2cc3c(cc2CCN1C(=O)c1cccc(Cl)c1)OCCCO3 (stereo not given)	i	5.4	2.2	0.7	·	2.0	-0.8
CC1CCCN(C(=O)CCCNC(=O)c2ccc(Cl)cc2)C1 (stereo not given)	i	-3.3	-1.1	0.74	-7%	-1.9	2.7
CC(O)(c1ccccc1)c1nc(-c2ccc(S(C)(=O)=O)cc2)cs1 (stereo not given)	i	-0.9	·	·	·	-3.8	·
CC1(C)CC(NC(=O)CCc2nnc(CCCCc3ccccc3)o2)CCO1 (stereo not given)	i	-0.8	-2.9	0.75	3%	-0.2	6.6
CC(=O)Nc1ccc(NC(=O)CCCN2C(=O)C(c3ccccc3)Oc3cccnc32)cc1 (stereo not given)	i	-2.6	·	·	-11%	-0.8	·
NS(=O)(=O)c1cccc(NC(=O)COC(=O)Cn2cc(C(F)(F)F)ccc2=O)c1	i	-1.1	·	0.67	3%	-4.1	0.5
Nc1nnc(SC2CCCC2)s1	i	3.2	0.0	0.67	8%	0.2	1.6
CCOC(=O)[C@H]1[C@H]2COc3ccccc3[C@@H]2N2C(=O)c3cc(F)ccc3NC(=O)[C@@]12C	i	-4.2	·	·	·	-11	0.7
CCOc1ccc(S(=O)(=O)NCc2ccc3c(c2)OCO3)cc1NC(C)=O	i	0.0	-1.7	0.67	·	0.0	0.8
O=S(=O)(c1ccccc1C(F)(F)F)N1CCOCC1	·	-1.2	-1.8	0.74	2%	·	-1.1
O=C(/C=C/c1ccco1)NCc1ccco1	i	-0.3	-5.1	·	·	·	·
Cc1cc(N2CCN(C)CC2)nc2ccc(NC(=S)N3CCN(c4ccc(Cl)cc4)CC3)cc12	i	2.3	0.1	0.69	·	18	-19
C[C@H](NS(=O)(=O)c1c(Cl)cccc1Cl)C(=O)NNC(=O)COc1ccccc1F	i	-0.1	·	0.68	·	0.3	3.9
O=C(CN1CCN(c2ccccc2O)CC1)NC(c1ccccc1)c1ccccc1	·	-2.1	?	0.7	?	·	1.3
Cc1ccc(C)c(/C=N/NC(=S)NCCc2ccccc2)c1	·	1.3	?	·	2%	·	·
O=C(CCc1ccccc1)NC(=S)NCc1ccco1	·	1.3	1.4	0.69	-5%	6.3	1.2
CCOC(=O)Cc1csc(NC(=O)Nc2ccc(F)cc2)n1	i	3.0	4.7	0.64	·	-0.1	3.4
CN(C)S(=O)(=O)c1ccc(C(=O)Nc2nc(-c3cc4ccccc4o3)cs2)cc1	i	-2.2	1.4	0.71	-93%	-2.9	-280

A few values from the list:
O=C(/C=C/c1ccco1)NCc1ccco1 – HNF4A DNA FP = -0.3
Cc1ccc(C)c(/C=N/NC(=S)NCCc2ccccc2)c1 – Vif TR-FRET = 2%

(more compounds)
SMILES	FGF22 binding	HNF4A DNA FP	RanGTP-Imp inh	E coli growth	Vif TR-FRET	AF4-AF9 inh	UCH37 DUB inh
COc1ccc(C2CC(=O)NC(=O)C2)cc1	i	2.1	1.7	0.68	-3%	1.0	0.4
c1ccc(CCNc2nc3ccccc3s2)cc1	·	-0.8	5.5	0.67	0%	·	1.7
Cc1ccc(S(=O)(=O)N2CCOCC2)cc1C(=O)Nc1ccccc1F	i	0.9	·	0.72	·	-1.7	4.9
O=C(CSc1ccc(-c2ccc(F)cc2)nn1)Nc1ccc2c(c1)OCCO2	·	2.9	-0.3	0.68	·	·	1.9
COc1ccc(NC(=O)Cc2ccsc2)cc1S(=O)(=O)N1CCOCC1	i	7.6	·	·	·	-1.7	·
CCN1C(=O)[C@H]2[C@@H](c3ccc(OC)cc3)N3C(=O)CN(CCOC)C(=O)[C@@]3(Cc3ccccc3)[C@H]2C1=O	i	-4.1	6.5	·	·	·	1.9
O=[N+]([O-])c1cccc(/C([O-])=C(/C(=S)Nc2ccccc2F)[n+]2ccccc2)c1	i	2.3	6.2	0.68	1%	6.1	7.3
CC(C)CCN1CCN(Cc2ccc(C(F)(F)F)cc2)CC1CCO (stereo not given)	i	-2.5	1.8	0.67	6%	-23	1.9
CC(NC(=O)c1ccccc1OC(F)F)c1ccc(-n2ccnc2)cc1 (stereo not given)	i	0.8	2.0	0.7	·	0.3	-2.3
CC(N=c1ccccn1C(=O)Nc1ccc(Cl)cc1)c1ccco1 (stereo not given)	·	·	2.5	0.65	-6%	·	1.7
COc1ccc(CCNC(=O)CSc2nc3[nH]ncc3c(=O)n2-c2ccccc2OC)cc1OC	i	11	-1.0	0.7	-5%	2.1	0.0
Cn1c(=O)oc2cc(S(=O)(=O)NCCN3CCCCCC3)ccc21	·	1.6	3.6	0.69	0%	·	0.2
Cc1cc(C)c2c(CN3CCCCCCC3)cc(=O)oc2c1	i	-2.8	·	·	·	4.8	·
COc1ccc(OC)c(C2C(C(C)=O)=C(O)C(=O)N2c2ccc(O)cc2)c1 (stereo not given)	·	-1.4	-0.6	0.75	1%	·	3.4
O=C(Cc1ccccc1)NCC(=O)N/N=C/c1ccc(Cl)cc1	i	-1.2	-0.6	·	-5%	0.7	·
CCCCN1CC2=C(C1=O)C(c1ccc(O)cc1)NC(=O)N2C (stereo not given)	i	-2.5	-2.7	0.71	1%	-1.7	3.7
COc1ccc(OC)c(NC(=O)Cn2c(CCC(=O)O)ccc2-c2ccccc2)c1	·	-0.9	2.1	0.71	4%	·	2.1
CCOC(=O)c1c(NC(C)=O)sc2c(O)c(Br)ccc12	·	4.0	4.8	0.69	0%	·	-2.5
O=C(NCCc1c[nH]c2ccccc12)C(=O)NCC1OCCCN1S(=O)(=O)c1cccs1 (stereo not given)	i	7.0	-0.2	0.72	·	1.1	3.7
COC(=O)C1CSc2[nH]c(=O)sc2C1c1ccccc1 (stereo not given)	i	-39	-4.8	0.72	5%	-1.9	0.7
COc1ccc(C=O)cc1Oc1nc(Cl)ncc1F	i	8.9	0.9	0.67	8%	3.2	-0.2
Cc1ccc(S(=O)(=O)CCN2CCN(c3ccccn3)CC2)cc1	i	-1.5	0.1	0.68	3%	-11	2.8
Cc1cccc(C(=O)OCc2cc(=O)oc3c(C)c(C)ccc23)c1O	·	-0.8	-2.8	0.69	2%	·	-5.0
CC12CC(NC(=O)N1c1cccc(C(=O)NCc3ccccc3)c1)c1ccccc1O2 (stereo not given)	·	·	2.7	0.68	-16%	·	0.6
N#CCc1nc(CSc2nc3ccccc3s2)cs1	i	1.5	8.9	0.69	-1%	3.2	0.3
Cc1cccc(CS(=O)(=O)Cc2ccc(C(=O)NC(C)c3ccccc3)o2)c1 (stereo not given)	i	-2.1	-0.1	0.69	-1%	-11	1.2
CC1(C)CC(=O)C2=C(C1)N(CC1CCCO1)C(=O)C2(O)C(F)(F)F (stereo not given)	·	0.6	?	0.7	-3%	·	5.7
CCCCN1CC[C@H]2C=CC[C@@H](C(=O)N3CCOCC3)[C@H]2C1=O	i	0.5	8.8	·	·	-4.2	1.2
C#CCOC(=O)c1ccc(-n2cncn2)nc1	·	0.0	0.3	0.68	-4%	·	0.3
O=C(Nc1ccc(F)cc1)NC1(C(=O)NCc2ccco2)CCCCC1	·	-1.0	-1.7	0.7	1%	·	1.2
COC(=O)c1ccc2[nH]c(CO)c(-c3ccccc3)c2c1	i	-3.2	0.1	0.73	·	1.9	1.9
CCOc1ccc(C2NC(=O)c3n[nH]c(C)c32)cc1 (stereo not given)	i	3.8	4.8	0.72	3%	-0.6	4.2
O=C(O)c1ccc(N2C(=O)CC(SC(=NCc3ccc4c(c3)OCO4)Nc3ccccc3)C2=O)cc1 (stereo not given)	i	5.1	3.2	0.68	2%	6.5	-2.2
CCOC(=O)CNC(=O)N1CCCC(C(=O)c2cccc(Cl)c2)C1 (stereo not given)	i	-2.2	-3.6	0.69	-5%	0.4	-0.3
CCN1CCCC1CNC(=O)c1ccc2c(c1)N(Cc1cccc(Cl)c1)C(=O)c1ccccc1S2(=O)=O (stereo not given)	i	3.8	8.3	0.69	·	16	0.6

Only part of the results is shown. The share of hits here may be higher or lower than overall.
